gsp agonist: activates gsp, the McCune-Albright syndrome mutation | gsp mutant cells, cAMP HTRF, 30 min; control for the full effect not named in the record | Potency, µM (doses to about 76.9 µM), without a hit: top-dose activation (cAMP increase), most hits filed as activators | 340,000 compounds, 0.13% hits | AID 624287; active = well fitted activation curve with a large enough effect; inconclusive = small, poorly fitted or top-dose-only effect, or another doubt; inactive = no such curve, though single readings can be large or run the other way; cell line not stated here;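 further: phosphodiesterase inhibitor Ro 20-1724 added with compounds to block cAMP breakdown; potency means the concentration at half of the fitted maximal effect; nearly all actives have a fitted effect of over 60% in size; about a fifth of the inactives were tested at one dose only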
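Cells in DMEM/10% FBS with G418 were pretreated with compounds in DMSO plus […] (300 uM stock) for 30 min at 37C. cAMP was measured by HTRF (cAMP-d2 plus anti-cAMP antibody-K) after 30 min at room temperature.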
ClpP mod: qHTS Assay for Activators of ClpP | Potency, µM (doses to about 57.5 µM), for inactives: at the top dose activity change, negative = active | purified B. subtilis ClpP, FRET peptide cleavage, 20 min | 340,000 compounds, 1.9% hits | ATP-dependent Clp protease proteolytic subunit (Bacillus subtilis (strain 168)), P80244; active = well fitted falling curve with a large enough effect; inconclusive = small, poorly fitted or top-dose-only effect; inactive = no such curve, though single readings can be large or run the other way; further: potency means the concentration at half of the fitted maximal effect; the source files actives as falling curves though it sought activators and does not explain the sign; nearly all actives have a fitted effect of over 65% in size; many hits overshoot -100%
Target sequence (P80244 whole entry, looked up): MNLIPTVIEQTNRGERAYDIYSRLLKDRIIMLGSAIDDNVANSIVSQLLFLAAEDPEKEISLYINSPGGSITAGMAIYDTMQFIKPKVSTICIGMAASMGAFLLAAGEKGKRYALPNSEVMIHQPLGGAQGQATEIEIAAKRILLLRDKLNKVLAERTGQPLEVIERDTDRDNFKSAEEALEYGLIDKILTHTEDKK
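FRET quenching reversal measured ClpP activation: 10 microg/mL B. subtilis ClpP at pH 8 with the FRET-FV decapeptide, read at 430 nm after 320 nm excitation. The 20-min minus 0-min signal was scaled between DMSO/no-enzyme wells and ADEP (5.8 microM final).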
Menin-MLL FL inh: displaces fluorescein MLL peptide from human menin | Fluorescence polarization, fluorescein-MLL peptide displacement from menin | FP activity change, % at 61.4 µM | 290,000 tested, under 10 active; inconclusive = falling polarisation curve, or a change in total fluorescence; inactive = total fluorescence flat and polarisation flat or rising; no compound was filed as active; the % refers to the polarisation; negative = inhibition;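 further: % of control where 0% means no effect; inhibitors lower the polarisation; unlabelled MLL peptide was the positive control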
TRPML1 blocker: blocks the human TRPML1 channel | Q9GZU1 | TRPML1-inducible cells, Ca2+ dye fluorescence, FDSS; stronger effect = lower value; inhibition of EC80 agonist-evoked calcium signal | activity change, negative = inhibition, % (concentration not given with the values) | 390,000 compounds, 0.02% hits; in the data active means activity change below about -50%; inconclusive means about -30% to -50%; inactive means above about -30%;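 further: stimulus is agonist 54-4 at its EC80 concentration; on the % scale 0 is the no-effect control and ±100 the full control effect; the text of the record puts the active cut at -80%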
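TRPML1-DL cells, Tet-induced overnight (~16 h, 37 °C) at 1,500 cells/well, were loaded with Ca8 no-wash dye plus quencher for 45-90 min at room temperature. Compounds were pinned during FDSS kinetic reading; agonist 54-4 at EC80 (4 uM final) then added.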
gsp antag: gsp mutant antagonism; gsp-mutant cells, cAMP HTRF, 30 min; control for the full effect not named in the record; Potency, µM (doses to about 76.9 µM), without a hit: at the top dose activity change, negative = inhibition, actives largely listed as inhibitors; 340,000 compounds, 0.4% hits; active = falling curve of any shape with a large fitted effect; inconclusive = falling curve, mostly with a smaller effect; inactive = flat or rising curve; cell line not stated here;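 further: intracellular cAMP measured with PDE inhibitor Ro 20-1724 present during compound exposure; potency means the concentration at half of the fitted maximal effect; on the % scale 0 is the no-effect control and ±100 the full control effect; nearly all actives have a fitted effect of over 65% in size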
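Cells, 2000/well, grown 16–24 h in DMEM 10% FBS with 0.5 mg/ml G418, then compounds plus […] (300 uM addition stock), 30 min at 37C. cAMP read by HTRF (cAMP-d2 and anti-cAMP antibody-K in lysis buffer) after 30 min RT.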
TRPV1 PAM: potentiators of human vanilloid receptor 1 (TRPV1). TRPV1-expressing cells, Fluo-8 calcium influx, capsaicin EC20 potentiation; host cell line not named in the record; control for the full effect not named in the record. potentiation, % at 8.33 µM. 320,000 compounds, 0.02% hits; active means potentiation above 80%; inconclusive means 30% to 80%; inactive means below 30%; further: 0% is about no effect
Target sequence (Q8NER1 whole entry, looked up): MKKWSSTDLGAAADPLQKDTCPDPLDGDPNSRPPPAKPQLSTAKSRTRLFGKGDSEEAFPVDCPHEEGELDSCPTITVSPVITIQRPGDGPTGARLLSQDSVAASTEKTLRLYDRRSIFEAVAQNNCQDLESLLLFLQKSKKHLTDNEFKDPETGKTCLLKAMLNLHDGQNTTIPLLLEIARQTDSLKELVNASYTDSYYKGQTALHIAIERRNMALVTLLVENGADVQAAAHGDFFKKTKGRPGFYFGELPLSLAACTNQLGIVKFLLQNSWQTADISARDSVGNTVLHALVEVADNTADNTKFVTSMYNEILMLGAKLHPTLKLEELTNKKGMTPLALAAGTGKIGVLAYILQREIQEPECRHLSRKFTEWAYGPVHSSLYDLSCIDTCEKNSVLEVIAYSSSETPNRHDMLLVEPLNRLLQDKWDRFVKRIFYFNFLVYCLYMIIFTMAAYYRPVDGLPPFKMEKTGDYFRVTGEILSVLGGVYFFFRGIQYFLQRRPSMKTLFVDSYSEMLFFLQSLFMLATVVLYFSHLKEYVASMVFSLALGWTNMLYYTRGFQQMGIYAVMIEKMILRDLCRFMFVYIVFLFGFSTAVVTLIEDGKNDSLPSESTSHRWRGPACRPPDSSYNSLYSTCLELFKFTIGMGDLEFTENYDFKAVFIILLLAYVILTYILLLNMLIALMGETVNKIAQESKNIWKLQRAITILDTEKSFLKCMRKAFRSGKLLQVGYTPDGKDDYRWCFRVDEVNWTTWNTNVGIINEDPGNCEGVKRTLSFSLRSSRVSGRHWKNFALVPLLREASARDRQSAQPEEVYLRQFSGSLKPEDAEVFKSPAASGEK
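Cells expressing TRPV1 were dye-loaded with Fluo-8 and read kinetically: 10 s baseline, 3 min after compound (agonist portion), then 2 min after EC20 capsaicin (allosteric enhancer portion). Calcium-bound dye fluorescence at 480/520 nm.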
Sfp inh: Sfp phosphopantetheinyl transferase inhibition; Q9F4F7; Potency, µM, without a hit: max response, negative = inhibition, hits mostly inhibitors; Biochemical Sfp PPTase activity, qHTS; 310,000 compounds, 3.5% hits; active means well fitted inhibition curve with a large enough effect; inconclusive means small, poorly fitted or top-dose-only effect, or another doubt; inactive means no such curve, though single readings can be large or run the other way;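 further: the enzyme is Sfp with the accession as filed and its product quenches rhodamine fluorescence; potency means the concentration at half of the fitted maximal effect; 0% = enzyme reaction without inhibitor and -100% = no enzyme wells; top concentration of the series not given in the record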
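Sfp 15 nM + cpd, 15 min RT; start w/ rhodamine-CoA 5 uM, BHQ-2-YbbR 12.5 uM (final); 50 mM Hepes pH 7.6, 10 mM MgCl2, 0.01% NP-40, 0.01% BSA; read 525/598 nm at 0 and 30 min.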
* = called active by the depositor; u = inconclusive; x = no result given; & = joins results of further samples; [ ] = remark or other dose.

SMILES,gsp agonist,ClpP mod,Menin-MLL FL inh,TRPML1 blocker,gsp antag,TRPV1 PAM,Sfp inh
CCOC(=O)c1cc(-c2ccccc2)sc1NC(=S)Nc1cc(C)ccn1,14%,-0.6%,0.9,-19,3%,-1,7%
CC(CNC1CCCCC1)OC(=O)c1ccccc1 (stereo not given),x,1.9%,x,-10,4%,3,x
COc1ccc(NC(=S)NNC(=O)Cn2nc([N+](=O)[O-])cc2C)cc1,u,-3.8%,12,2,5%,-6,-16%
c1ccc(Nc2nc(Nc3ccccc3)nc(N3CCNCC3)n2)cc1,-25%,x,3.7,15,12%,-9,-15%
CCOC(=O)c1csc(-c2ccc([N+](=O)[O-])cc2)n1,5%[15.4 µM],-2.0%,3.0,12,-3%,-16,9%
O=C(O)c1ccccc1NS(=O)(=O)c1ccc(NN=Cc2cccc(Cl)c2)c([N+](=O)[O-])c1,-36%,1.1%,x,-20,-6%,x,x
COc1ccc(NC(=O)c2sc(Cl)nc2-c2ccccc2)cc1,-9%[15.4 µM],-4.9%,2.4,4,2%,5,7%
COc1ccc(OC)c(/C=C/C(=O)OCC(=O)Nc2cccc(Oc3ccccc3)c2)c1,u,35µM*,-0.6,-7,7%,0,18%
CC(C)=N/N=C1/NC(=O)C(CC(=O)Nc2cc(Cl)ccc2C)S1 (stereo not given),14%,-2.2%,-2.5,0,4%,0,13%
Cc1ccc(Nc2nc(-c3c(C)nc4ncccn34)cs2)cc1,-30%,-28%,3.0,8,2%,x,50µM*
CCC1CCCCN1C(=S)Nc1ccc(SC(F)F)cc1 (stereo not given),5%[15.4 µM],-0.4%,1.0,-2,4%,-2,13%
Cc1c(CCC(=O)NCCCN2CCCC2=O)c(=O)oc2cc(O)ccc12,x,5.0%,-1.0,x,9%,11,19%

Carrying on.
SMILES,gsp agonist,ClpP mod,Menin-MLL FL inh,TRPML1 blocker,gsp antag,TRPV1 PAM,Sfp inh
Cc1cccc2c(=O)c(C(=O)NCCCN3CCOCC3)c[nH]c12,5%,-10%,2.7,-8,11%,4,10%
CC(=O)COc1cc(C)cc2oc(=O)cc(-c3ccccc3)c12,-2%,0.5%,5.0,-13,-2%,-8,1%
COc1ccc(-c2cccc(NC(=O)c3ccco3)c2)nn1,-10%[15.4 µM],-1.1%,x,16,-13%,-2,x
CCc1nnc(NS(=O)(=O)c2ccc(N)cc2)s1,x,1.5%,-6.2&-5.8,-6,0%,1,-1%&-4%
Cc1ccc(C)c(N(CC(=O)N2CCCCCC2)S(C)(=O)=O)c1,-2%,-1.1%,-0.2,4,-2%,4,14%
O=C1OC(CCl)CN1Cc1ccc([N+](=O)[O-])cc1 (stereo not given),-5%,x,x,-7,9%,x,x
OC(COc1ccc(-c2ccccc2)cc1)CN1CCOCC1 (stereo not given),x,x,-6.4,x,x,2,20%
C=CCNc1nc(C(=O)OCC(=O)c2ccc(OC)cc2OC)cs1,-46%[inhibitor],2.6%,x,-13,7%,8,x
COc1ccc(C2C(C(N)=O)=C(C)Nc3nc(-c4ccccc4OC)nn32)cc1OC (stereo not given),19%,-4.1%,2.8,7,3%,3,13%
Cn1c(CC(=O)Nc2ccc(F)cc2)c(Sc2ccccc2)c2ccccc21,u,-0.2%,7.1,5,-7%,-5,21%
COc1ccccc1OCCCOc1ccc(C)cc1Br,-4%,0.6%,-1.4,2,-7%,9,0%
COc1ccc(OC)c(NC(=O)CSc2ccccc2)c1,-21%,-1.8%,1.1,48,-12%,-1,12%

Additional entries follow.
SMILES,gsp agonist,ClpP mod,Menin-MLL FL inh,TRPML1 blocker,gsp antag,TRPV1 PAM,Sfp inh
Cc1nc2ccccn2c1C(=O)/C=C/c1ccc(F)cc1,36%,-2.0%,5.4,-2,-4%[15.4 µM],23,-9%
CCOc1cc(Cl)c(NC(=O)CC)cc1OCC,-7%,-0.7%,-3.9,-1,10%,-11,14%
CC(C)[C@@H]1N[C@]2(C(=O)Nc3ccccc32)[C@@H]2C(=O)N(c3cccc(C(F)(F)F)c3)C(=O)[C@@H]21,13%,1.3%,7.8,11,4%,-13,19%
CC(C)N1CC(O)=C(c2nc3ccccc3c(=O)[nH]2)C1=N,20%,28µM*,0.4,3,-1%,5,17%
COC(=O)c1ccc([N+](=O)[O-])c(CS(=O)(=O)c2ccc(Cl)cc2)c1,12%,0.2%,1.4,25,0%,0,2%
CCn1c2ccccc2c2cc(NC(=O)CN3CCCC3)ccc21,13%,x,-5.5,4,8%,-8,6%
OC1(c2ccc3c(c2)OCO3)CCN(Cc2ccc(F)cc2)CC1,-5%,-1.4%,0.7,x,5%,9,9%
COCC1CCCN(Cc2nc(-c3ccc4c(c3)OCO4)no2)C1 (stereo not given),-1%,x,0.1,-5,-2%,2,7%
Cc1ccc(C(c2nnnn2CS(=O)(=O)c2ccc(C)cc2)N2CCN(c3ncccn3)CC2)cc1 (stereo not given),10%,-4.9%,1.6,-7,-18%,-4,14%
Cc1cc(N2CCN(C)CC2)nc(-c2ccccc2O)n1,26%,4.0%,-0.9,x,-30%,-7,-5%
NC(=O)c1cc(S(=O)(=O)N2CC=C(c3ccccc3)CC2)cs1,-27%,-1.8%,x,3,-6%,10,15%
O=C1Nc2ccc(Br)cc2C1=Nc1cccnc1,11%[15.4 µM],1.4%,2.0,-8,25%,4,-2%

Next part
SMILES,gsp agonist,ClpP mod,Menin-MLL FL inh,TRPML1 blocker,gsp antag,TRPV1 PAM,Sfp inh
O=C(CCC1CCCCC1)Nc1c2c(nn1-c1ccc(F)cc1)CS(=O)(=O)C2,-2%,0.1%,3.0,1,2%,-7,9%
O=C(Cc1ccccc1)Nc1ccnn1C1CCN(Cc2nccs2)CC1,u,0.0%,-4.0,0,0%,4,19%
COc1ccc(S(=O)(=O)N2CCN(C(=O)c3c(C)nn(-c4ccccc4)c3C)CC2)cc1,-7%,3.4%,x,-14,u,3,x
CCc1cccc(NC(=O)C2CCCN(c3ncnc4c3nc3n4CCCCC3)C2)c1 (stereo not given),24%,x,0.6,-12,u,-3,-1%
CC(/C=N/Nc1nc(N2CCCCC2)nc(N2CCCCC2)n1)=C\c1ccccc1,-21%,0.6%,0.1,5,-12%,-1,5%
C=CCN1C(=O)C(CC(=O)O)SC1=Nc1ccc(C)cc1 (stereo not given),10%,1.4%,0.2,10,2%,4,21%
COc1cc(C(=O)OCC(=O)N2CCN(S(=O)(=O)c3ccc(C)cc3C)CC2)c([N+](=O)[O-])cc1OC,31%,-1.5%,x,1,-14%,x,x
C#CC(=O)N(c1ccc(OC)cc1OC)C(C(=O)NC1CCCC1)c1cccs1 (stereo not given),-14%[15.4 µM],x,-2.2,22,-12%,0,13%
O=C(Nc1ccc(F)cc1F)c1cc(-c2ccc3c(c2)OCO3)on1,28%[15.4 µM],-1.8%&0.4%,0.8,2&1,7%,3,-7%
O=C(c1cccc(Br)c1)N1CCN(S(=O)(=O)N2CCCCCC2)CC1,-54%[inhibitor],-2.4%,3.7,-16,-3%,-9,-2%
CCOC(=O)/C=C/C(=O)Nc1ccc(-c2nnc3n2CCCCC3)cc1,-11%,-1.3%,-0.5,-8,5%,6,1%
CCOc1ccc(NC(=O)NCC2CCN(Cc3ccc(F)cc3)CC2)cc1,-5%,-2.0%,3.9,x,8%,0,2%

Entries of single compounds from above. Order of screens: gsp agonist	ClpP mod	Menin-MLL FL inh	TRPML1 blocker	gsp antag	TRPV1 PAM	Sfp inh
`O=C(c1cccc(Br)c1)N1CCN(S(=O)(=O)N2CCCCCC2)CC1` reads -54%[inhibitor]	-2.4%	3.7	-16	-3%	-9	-2%
`COc1cc(C(=O)OCC(=O)N2CCN(S(=O)(=O)c3ccc(C)cc3C)CC2)c([N+](=O)[O-])cc1OC` reads 31%	-1.5%	x	1	-14%	x	x
`O=C(Cc1ccccc1)Nc1ccnn1C1CCN(Cc2nccs2)CC1` reads u	0.0%	-4.0	0	0%	4	19%

More results.
SMILES,gsp agonist,ClpP mod,Menin-MLL FL inh,TRPML1 blocker,gsp antag,TRPV1 PAM,Sfp inh
CCCc1cc(=O)oc2cc(C)cc(OC(C)C(=O)NCc3cccnc3)c12 (stereo not given),-15%,3.6%,-0.1,-10,-8%,20,31%[activator]
COC(=O)Nc1ccc(S(=O)(=O)N2CCCCCC2)cc1,-5%,0.2%,0.0,1,11%,-8,9%
Cc1cccc(NC(=O)COc2ccccc2C(=O)NC(C)c2ccccc2)c1 (stereo not given),-20%,-4.2%,x,5,28µM*,-4,u
Cc1ccc(C(C)(C)NC(=O)C2CCC(=O)N(Cc3ccccc3F)C2)cc1 (stereo not given),-23%,u,x,-1,-10%,2,17%
CCN(CC)S(=O)(=O)N1CCC(C(=O)NCCN2CCOCC2)CC1,13%,0.9%,1.1,0,4%,14,-3%
COc1cccc(C(=O)c2ncc(C(F)(F)F)cc2Cl)c1,-1%[15.4 µM],x,2.6,7,7%,5,11%
Clc1cccc(Cl)c1/C=N/Nc1c(Cl)cncc1Cl,u,x,2.8,26,-23%,-6,-18%
Cc1cc(OCCCC(=O)NCCc2nnc3ccccn23)ccc1Cl,19%,-13%,x,21,-1%,x,x
CCOc1ccccc1NC(=O)c1cc(Cl)ccc1NC(=O)c1ccco1,-29%,-1.5%,1.9,-9,12%,15,20%
Oc1ccccc1/C=N/Nc1ncc(Br)cn1,u,0.5%,1.6,15,20%,-22,17%
COc1ccc(-c2oc3ccccc3c(=O)c2OC(=O)c2ccc(C)cc2)cc1,-40%[inhibitor],u,2.3,-3,2%,u,-7%
CCCC(=O)NC(=S)Nc1cccc(-c2nc3ncccc3o2)c1,-4%,x,2.0,-9,-4%,-9,-5%
CNC(=S)NNC(=O)c1ccccc1Br,1%[15.4 µM],-2.7%,-1.8,8,0%,-5,-21%
CN(C(=O)CN1C(=O)NC(C)(c2cccc(Br)c2)C1=O)C1CCCCC1 (stereo not given),11%,-0.6%,x,19,9%,11,x

Compound activity: PubChem BioAssay, National Center for Advancing Translational Sciences (NCATS)

Compounds were not picked by outcome (roughly 4.9% active in at least one column).
